Mtb hypoxia inh: Mtb hypoxia fluorescent reporter inhibition | M. tuberculosis hypoxia-regulated fluorescent reporter, fluorescence | fluorescence inhibition, % (no concentration beside the values) | 300,000 compounds, 0.1% hits;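 active = 35 to 45% if threefold the growth effect, above 45% if 1.5-fold the growth effect; inactive = the rest, general growth blockers included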;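 also: wells of about 50 µL received 100 nL stock; 0% = vehicle wells and 100% = reference inhibitor wells; whole bacteria with a GFP reporter of the hypoxia response; strong numbers were not always called active; many hits fall short of the cut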
Sa RN4220 lethal: S. aureus RN4220 growth inhibition; inhibition, % (no concentration beside the values); 330,000 compounds, 0.33% hits; OD600, 16 h; AID 1259311;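 active = z-score of -3 or lower and OD600 up to 0.18 on both plates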;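 also: plate controls were untreated cells for no effect and reference antibiotic for full effect; stock transfer was 100 nL into about 80 µL; one replicate is shown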
BJeLR lethal: kills HRASV12-expressing BJeLR cells. BJeLR (HRASV12) viability, CellTiter-Glo ATP luminescence, 48 h; reference of the scale not given here. inhibition, % (no concentration beside the values). 300,000 compounds, 0.17% hits. AID 1554;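 active = replicate mean above 50%; inconclusive = above 50% but judged a plate artefact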;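 also: 50 nL library stock added to about 25 µL; numbers are from one replicate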
Autofluor counter: counter-screen for toxin protease inhibitors: compound fluorescence; compound autofluorescence counterscreen, microsphere flow cytometry; hits give high values; fluorescence intensity (test concentration not listed); 360,000 compounds, 3.1% hits;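 active = at least 3 SD above the mean of all compounds, about 16000 in these data; inconclusive = too few beads counted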;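 also: 100 nL of 1 mM stock went into each well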
PrP 5UTR inh: suppresses PrP 5' UTR mRNA reporter expression | cell-based PrP 5' UTR mRNA reporter, plate reader | inhibition, % (no concentration beside the values) | 340,000 compounds, 0.35% hits | AID 488862;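 active = every replicate at 50% or more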;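 also: 0 = median of the neutral control wells; tested in H4 reporter cells; numbers are from one replicate; inactives centre near -14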
ugtP null kill: compounds lethal to S. aureus RN4220 ugtP deletion mutant; OD600 growth, 16 h; some inactives read as strong as hits; growth inhibition, % (concentration not given with the values); AID 1259309; 330,000 compounds, 0.54% hits;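 active = z-score under -3 and OD600 up to 0.15 on both plates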;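 also: plate controls were untreated wells for no effect and antibiotic for full effect; wells of about 80 µL received 100 nL stock; the first replicate is given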
Mtb hypoxia inh growth: recorded beside Mtb hypoxia inh, whose call it bears; growth inhibition, %; measured here: M. tuberculosis growth (absorbance);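 0% = vehicle and 100% = reference antibiotic; read after six days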
* marks the source's active call; other numbers are inactive results; ? = inconclusive; . = no result given; & = joins results of further samples.

SMILES	Mtb hypoxia inh	Mtb hypoxia inh growth	Sa RN4220 lethal	BJeLR lethal	Autofluor counter	PrP 5UTR inh	ugtP null kill
Cc1ccc2c(cnn2C(=O)CCC(=O)NC2CCCCC2)c1	1	2	8.0	3	6408	-25	5
COc1ccc(S(=O)(=O)Nc2ccc3c(c2)OCO3)cc1OC	4	11	-0.9	-3	18331*	-39	-9
Cc1ccc(-c2csc3nnc(SCC(=O)Nc4nsc(-c5ccccc5)n4)n23)cc1	9	11	17	-5	21990*	-2	-24
O=C(NC(C(=O)NCCN1CCOCC1)C12CC3CC(CC(C3)C1)C2)C1CCCCC1 (stereo not given)	14	10	0.7	-7	9957	-22	-2
CC(=O)N1CCN(C(=S)c2ccc(N(C)C)cc2)CC1	-5	4	4.2	0	9359	-11	-1
Cc1cc(C)c(S(=O)(=O)N2CCCCC2CCNC(=O)C(=O)NCc2ccccn2)c(C)c1 (stereo not given)	13	7	1.4	-5	?	-2	3
CC(=O)Nc1ccc(NC(=O)COC(=O)[C@@H](NC(=O)c2ccc(F)cc2)C(C)C)cc1	-5	3	2.5	-2	4206	-11	-2
C/C(CC(=O)Nc1cccc2c1CCCC2)=N\NC(=O)Cc1ccccc1	.	.	.	-6	3644	-13	.
COc1cc(C=NNc2ccccc2[N+](=O)[O-])ccc1OC(=O)c1ccccc1F	9	-9	-1.5	.	.	.	6
O=C(CC1SC(=Nc2ccccc2F)N(CCN2CCOCC2)C1=O)Nc1ccc(F)cc1F (stereo not given)	0	0	-1.7	-29	3532	-6	-8
CN(C(=O)CSc1ncnc2ccccc12)C1CCS(=O)(=O)C1 (stereo not given)	2	2	0.7	.	4719	-24	-3
CC(=O)N1CCN(C(=O)c2cccc(S(=O)(=O)N3CCN(c4ccc(F)cc4)CC3)c2)CC1	4	9	0.2	-1	6549	-16	-4
COC(c1ccccc1)c1nnc(CCC(=O)NCc2ccc3ncccc3c2)o1 (stereo not given)	12	4	5.3	-2	2243	-22	4
O=C(COC(=O)c1cccc([N+](=O)[O-])c1)Nc1ccc(Cl)cn1	11	1	2.1	-3	?	-17	7
Cc1ccc(CNC(=O)C2CCN(c3nc(C)cc(C)n3)CC2)cc1	3	11	1.9	-1	4195	-9	9
COC(=O)C1CCC(=S)N1C(=O)c1ccccc1 (stereo not given)	8	8	5.2	-3	3511	-22	7
COc1ccc(CCNC(=O)CS(=O)Cc2nc(-c3ccc(C)cc3)oc2C)cc1OC (stereo not given)	3	0	0.2	5	5321	-48	5
COc1ccc(OCc2cc(C(=O)N3CCCCCCC3)no2)c(Cl)c1	9	1	4.8	2	6319	-32	1
O=C(Nc1ccccc1C(=O)N1CCCCCC1)c1cccc([N+](=O)[O-])c1	-4	1	4.2	0	.	-8	5
O=C(CN1C(=O)NC2(CCCCC2)C1=O)NCCc1ccc(Cl)cc1Cl	17	8	3.9	.	4102	-42	11
CCOC(=O)c1ccccc1NC(=S)N1CCC(C(N)=O)CC1	3	-5	1.4	-15	6196	-23	7
Cc1ccc(CCNC(=O)C2CCC(CNc3c(N4CCC(C)CC4)c(=O)c3=O)CC2)cc1 (stereo not given)	-13	1	4.4	-11	5852	-1	15
O=C(NNC(=O)c1ccccc1Cl)c1cccs1	.	.	8.1	6	4619	-9	-3
COc1ccc(-c2nc(SCC(=O)N(CC(C)C)c3c(N)n(Cc4ccccc4)c(=O)[nH]c3=O)n[nH]2)cc1	-4	-5	6.8	-5	?	-8	15
NC(=O)COc1ccc2cc(-c3ccc(F)cc3)c(=O)oc2c1	12	16	3.3	-2	3076	-34	1

(listing goes on)
SMILES	Mtb hypoxia inh	Mtb hypoxia inh growth	Sa RN4220 lethal	BJeLR lethal	Autofluor counter	PrP 5UTR inh	ugtP null kill
COc1ccc(Cc2c(O)nc(SCC(=O)N3CCOCC3)[nH]c2=O)cc1	6	-4	2.8	-19	4914	-9	2
COc1ccc(S(=O)(=O)N2CCC(C(=O)Nc3ccc(F)cc3)CC2)c2cccnc12	3	3	-0.5	-4	4152	-17	2
Cn1c(N)c(C(=O)CSc2nnc(Cc3cccs3)n2C2CC2)c(=O)n(C)c1=O	-1	4	0.3	.	3876	-4	1
CCOCCn1c(CN(C)Cc2ccccc2)nc2c1c(=O)n(C)c(=O)n2C	8	-2	3.9	7	5702	-35	5
O=C(Nc1ccc(S(=O)(=O)Nc2ncccn2)cc1)c1ccc(F)c(S(=O)(=O)N2CCOCC2)c1	19	20	10	9	4875	10	4
Cc1cc(NC(=O)CSc2ccc3ccccc3c2)no1	.	.	-5.5	-4	2050	1	46
COc1cc(C(=S)N2CCOCC2)cc(OC)c1OC(=O)c1ccc([N+](=O)[O-])cc1[N+](=O)[O-]	18	8	4.7	-6	3203	-14	27
COc1ccnc(Oc2ccccc2)n1	1	2	6.7	17	7023	-16	-2
C1CC1Cc1noc(CN2CCN(CC3CC3)CC2)n1	-5	8	2.6	.	3216	-13	1
CCCCNc1ccncc1S(=O)(=O)NC(=O)NC(C)C	.	.	-1.3	-3	4330	2	0
COc1ccc(Cl)cc1-c1nc(SCC(=O)NC2CCCC2)n[nH]1	11	16	6.3	.	3158	-2	22
CCOC(=O)c1c(-c2ccccc2)csc1NC(=O)/C(C#N)=C\c1ccc(O)c(OC)c1	-1	0	-5.1	.	5970	-13	-6
OC(COc1cccc(OCC(O)CN2CCOCC2)c1)CN1CCOCC1 (stereo not given)	6	9	5.9&-6.1	7&-10	4838&4268	50&-16	4&-2
COc1cc(CN2CCC(CO)(CCOc3ccccc3)CC2)cc(OC)c1OC	3	1	0.4	-2	2234	-18	7
CC1CCCC(C)N1C(=O)COC(=O)C1CCN(S(=O)(=O)c2ccc3c(c2)OCCO3)CC1 (stereo not given)	7	4	-0.8	-2	.	-19	-1
O=C(COC(=O)c1ccc(Br)c(S(=O)(=O)N2CCOCC2)c1)NCCc1ccccc1	-3	7	-4.0	.	3493	-12	-5
CC(NC(=O)NC1CCCCC1)C(c1cccs1)N1CCN(Cc2ccccc2)CC1 (stereo not given)	-2	8	0.6	6	6391	-41	-5
Cc1ccc(OCC(=O)Nc2cc(-c3nn4c(C)nnc4s3)ccc2C)cc1	.	.	1.6	2	5163	-13	9
COC(=O)NN=Cc1c(C)c(C(=O)c2ccc(F)cc2)n2ccccc12	1	-6	5.6	.	.	.	-2
CN(C)c1ccc(N=C/C=C2/N(C)c3ccccc3C2(C)C)cc1	.	.	0.7	6	5146	-7	-6
O=C(COc1ccc(Br)cc1)N1CCN(Cc2ccc3c(c2)OCO3)CC1	0	-3	-1.8	6	5984	-20	11
O=C(Cc1cccc2ccccc12)N/N=C/c1ccncc1	.	.	.	-9	4455	-17	.
COc1ccccc1C1OC(c2cccc([N+](=O)[O-])c2)=NN1C(C)=O (stereo not given)	7	-3	9.5	-3	4223	-29	-3
CN1CCCc2cc3c(C(F)(F)F)cc(=O)oc3nc21	-12	5	-5.2	4	3366	-18	-5
COc1ccc(S(=O)(=O)N(C)CC(=O)NC2CCCC2)cc1Cl	.	.	0.8	-7	3686	1	4

(further entries)
SMILES	Mtb hypoxia inh	Mtb hypoxia inh growth	Sa RN4220 lethal	BJeLR lethal	Autofluor counter	PrP 5UTR inh	ugtP null kill
CC(=O)NS(=O)(=O)c1ccc(NC(=O)c2cccc(OCc3c(C)noc3C)c2)cc1	1	1	1.2	.	3956	-9	2
C#CC(C)(C)NC(=O)c1ccccc1OC	2	-3	-6.3	-8	4711	-9	-1
COc1ccc(CCNC(=S)N2CCN(S(=O)(=O)c3ccc(Cl)cc3)CC2)cc1	-1	1	2.2	5	5624	-16	1
Cc1ccc(NC(=S)N(CCN(C)C)Cc2cccs2)cc1	7	5	4.0	-2	4390	-10	6
CCN(c1ccc(NC(=O)c2cccc(S(=O)(=O)N3CCN(C)CC3)c2)cc1)C(C)C	6	20	2.3	5	6134	2	2
CCOC(=O)c1c(C)c[nH]c1C	11	0	3.5	-4	4213	-33	2
COC(=O)C1CCCN1C(=O)C1CCCN1C(=O)CNC(=O)OCc1ccccc1 (stereo not given)	.	.	-0.9	-1	4594	3	1
O=S(=O)(NN=Cc1ccc2c(c1)OCCO2)c1ccccc1	-14	5	1.4	.	.	.	-1
CN(Cc1ccccc1)S(=O)(=O)c1ccccc1Br	2	7	6.9	.	3584	-34	12
O=C(NCC(F)(F)F)c1nn(Cc2ccccc2)c(=O)c2ccccc12	-9	9	1.6	-5	3649	-36	-1
CN1CCN(Cc2c(C(=O)N3CCc4ccccc4C3)nc3ccc(Cl)cn23)CC1	-1	-7	4.4	-6	3691	3	11
CC(C)CCOc1ccc(C(=O)O)cc1	21	9	-11	-1	2964	-58	-5
CCOc1cccc2cc(C(=O)NC(C)c3ccccc3)c(=N)oc12 (stereo not given)	5	2	3.6	-3	4769	-23	1
CC(=NNC(=O)c1ccc2c(c1)OCO2)c1cccnc1	1	1	3.5	.	.	.	-2
CC(C)CCNC(=O)Nc1ccc2c(c1)N(C)C(=O)CS2	-1	-5	-4.5	-17	6635	-16	4
CCC(=O)N1c2ccccc2C(N(C(=O)CC)c2ccccc2)CC1C (stereo not given)	12	3	4.4	1	4347	-18	7
COC(=O)CN(c1c(C)cccc1C)S(C)(=O)=O	0	2	1.5	-6	11168	-4	0
O=C(CSc1nnnn1-c1ccc2c(c1)OCO2)NCc1ccccc1	-6	8	-0.2	-2	11282	-31	-7
Cc1ccc2c(c1)c1nnc(SCC(=O)Nc3ccc(N(C)C)cc3)nc1n2CC(=O)O	6	3	2.6	13	2750	-25	0
COc1ccc(/C=C(\NC(=O)c2ccc(Cl)cc2)C(=O)NCC2CCCO2)cc1OC (stereo not given)	0	-5	1.2	-4	2934	-7	7
Cc1ccc(C)c(NC(=O)CN(C)C(=O)[C@@H](NC(=O)c2ccc(C(C)(C)C)cc2)C(C)C)c1	11	9	2.4	-10	8988	-25	11
CCc1cc(C(=O)N(Cc2ccccc2)c2c(N)n(CCOC)c(=O)[nH]c2=O)sc1C	6	13	1.3	-2	.	-7	-1
CCCCNC(=S)NN=Cc1sccc1C	15	5	2.0	.	.	.	12
Cc1ccc(NC(=O)NC(=O)CSc2nnc(-c3ccc(Cl)cc3Cl)n2N)c(C)c1	-6	6	5.4	-1	2439	-3	-4
Cc1nn(CC(=O)NN)c(C)c1Br	2	-2	2.4	9	.	-23	2

Molecules from the list above that contain two or more sulfur atoms:
SMILES	Mtb hypoxia inh	Mtb hypoxia inh growth	Sa RN4220 lethal	BJeLR lethal	Autofluor counter	PrP 5UTR inh	ugtP null kill
Cc1ccc(-c2csc3nnc(SCC(=O)Nc4nsc(-c5ccccc5)n4)n23)cc1	9	11	17	-5	21990*	-2	-24
CN(C(=O)CSc1ncnc2ccccc12)C1CCS(=O)(=O)C1 (stereo not given)	2	2	0.7	.	4719	-24	-3
Cn1c(N)c(C(=O)CSc2nnc(Cc3cccs3)n2C2CC2)c(=O)n(C)c1=O	-1	4	0.3	.	3876	-4	1
O=C(Nc1ccc(S(=O)(=O)Nc2ncccn2)cc1)c1ccc(F)c(S(=O)(=O)N2CCOCC2)c1	19	20	10	9	4875	10	4
COc1ccc(CCNC(=S)N2CCN(S(=O)(=O)c3ccc(Cl)cc3)CC2)cc1	-1	1	2.2	5	5624	-16	1
Cc1ccc(NC(=S)N(CCN(C)C)Cc2cccs2)cc1	7	5	4.0	-2	4390	-10	6
CCCCNC(=S)NN=Cc1sccc1C	15	5	2.0	.	.	.	12

Continued:
SMILES	Mtb hypoxia inh	Mtb hypoxia inh growth	Sa RN4220 lethal	BJeLR lethal	Autofluor counter	PrP 5UTR inh	ugtP null kill
COc1ccc(C(=O)Nc2cc(OC)cc(OC)c2)cc1	.	.	-0.5	14	4734	-60	2
Cc1cc(C)c2nc(NC(=O)c3ccc(OCC4CCCO4)cc3)sc2c1 (stereo not given)	.	.	.	2	2743	-23	.
Cc1ccc(OCC(=O)Nc2sc3c(c2C#N)CC(C)(C)NC3(C)C)cc1	3	-4	-3.5	-7	3901	-71	1
CC1CCN(C(=O)CCl)CC1	.	.	2.8	-8	3326	-13	8
COc1cc2c(cc1OC)-c1nc3ccccc3c(=O)n1C(C)(C)C2	2	3	-1.2	6	15653	-9	8
O=C(CSc1nc(-c2ccccc2)c(-c2ccccc2)[nH]1)Nc1ccc2c(c1)OCO2	-2	2	-11	-14	2141	-17	-4
Cc1cc(F)ccc1S(=O)(=O)N1CCCOC1CNC(=O)C(=O)NCc1ccco1 (stereo not given)	6	2	7.6	2	2171	-16	8
COc1c(/C=C2\SC(=Nc3ccccc3Cl)NC2=O)cccc1[N+](=O)[O-]	2	8	-1.5	5	4438	-47	-17

Compound activity as filed in PubChem.
